High-throughput results: PubChem BioAssay, National Center for Advancing Translational Sciences (NCATS)
AmpC nodet inh = Promiscuous and Specific Inhibitors of AmpC Beta-Lactamase (assay without detergent). AmpC nitrocefin hydrolysis, absorbance 480 nm, no detergent; potencies from a single point are estimates. Potency, µM (highest dose often 28.7 µM), for inactives: at the top dose activity change, negative = inhibition. hit rate 1.8% among 71,000. AID 585, 2007; active = falling curve, for most hits resting on a single point; inconclusive = weak or doubtful change; inactive = flat or rising curve; further: % of control where 0% means no effect; about half of the hits show no inhibition at the top dose; a quarter of the inactives give rising signals
Target sequence (P00811 whole entry, looked up): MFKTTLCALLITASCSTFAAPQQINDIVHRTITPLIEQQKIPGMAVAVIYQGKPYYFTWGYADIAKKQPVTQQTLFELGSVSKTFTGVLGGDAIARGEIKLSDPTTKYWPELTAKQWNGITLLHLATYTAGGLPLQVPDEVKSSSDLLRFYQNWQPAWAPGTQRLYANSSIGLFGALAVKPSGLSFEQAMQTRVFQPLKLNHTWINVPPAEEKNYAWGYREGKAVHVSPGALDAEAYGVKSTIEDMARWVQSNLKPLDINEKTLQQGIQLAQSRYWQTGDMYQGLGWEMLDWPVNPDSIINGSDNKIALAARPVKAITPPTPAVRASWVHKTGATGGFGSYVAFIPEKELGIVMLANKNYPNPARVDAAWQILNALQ
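AmpC, 20 mM phosphate pH 7.0; 15 min cpd preinc, RT; start with nitrocefin (800 uM stock); A480 kinetic read, 20 s intervals, 4 min. No-enzyme wells = negative control.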
An asterisk follows results filed as active; ? = inconclusive; [ ] = remark or other dose. Potency means the concentration at half of the fitted maximal effect.

SMILES	AmpC nodet inh
O=C(NCc1cccnc1)c1ccc(CS(=O)(=O)c2ccc(Br)cc2)o1	3.2µM*
C=CCNC(=O)COc1ccc(Br)cc1Cl	2%
Cc1ccccc1C1=NC(c2ccc(F)cc2F)ON1 (centres undefined)	-13%
O=C(c1cc2ccccc2oc1=O)N(Cc1ccco1)CC1CCCO1 (centres undefined)	15%
COc1cccc(C(=O)Nc2ccc(-c3nc4ccccc4o3)c(O)c2)c1	-12%
O=C(NC1CCCCC1)c1cccnc1C(=O)O	-21%
Nc1nc(-c2ccc3c(c2)CCCC3)cs1	4%
COc1ccc(S(=O)(=O)N(CC(=O)N2CCOCC2)c2cc(Cl)ccc2OC)cc1OC	111%
COc1ccccc1N1CCN(C(=O)CCCn2c(=O)[nH]c3ccsc3c2=O)CC1	72%
Cc1cccc(OC(C)C(=O)N(Cc2cccs2)C2CCS(=O)(=O)C2)c1C (centres undefined)	83%
O=C(CCC(=O)N1CCN(S(=O)(=O)c2ccccc2)CC1)c1cccs1	12%
O=C(c1ccco1)N1CCN(C(c2ccc(F)cc2)c2nnnn2CC2CCCO2)CC1 (centres undefined)	42%
CCc1nnc(NC(=O)C2CCN(C(=O)NC3CCCCC3)CC2)s1	12%
COc1ccc(Nc2nc(C(=O)NCCCN3CCOCC3)cs2)cc1	15%
Cc1nc2nc3c(c(=O)n2[nH]1)CCC3	5%
CN(C)c1cc[n+](Cc2ccccc2)cc1	-12%
CC1CN(c2cc(=O)n(-c3ccccc3)c(=O)[nH]2)CC(C)O1 (centres undefined)	-1%
Cc1nc2nc[nH]n2c(=O)c1NC(=O)CC12CC3CC(CC(C3)C1)C2	-19%
O=C(NC1CCCCC1)C1CC(O)CN1C(=O)OCc1ccccc1 (centres undefined)	12%
O=C(NC(c1ccccc1)c1ccccc1)C1CCCN(S(=O)(=O)c2cnc[nH]2)C1 (centres undefined)	33%
CC1Cc2nc(SCC(=O)Nc3ccc4c(c3)OCCO4)n(C)c(=O)c2S1 (centres undefined)	6%
COC(=O)CSc1nnc(-c2ccc(OC)cc2OC)o1	20%
N#Cc1cc2c(nc1SCC(=O)N1CCCCC1)CCCC2	-8%
O=C(CC(c1ccccc1)c1cc(Br)ccc1O)NCCN1CCOCC1 (centres undefined)	43%
CC1CN(c2cc(=O)n(Cc3ccc(F)cc3)c(=O)[nH]2)CC(C)O1 (centres undefined)	32%
CCC[C@@H]1C[C@@]1(CCC)C(NC(=O)c1ccccc1)c1cccc(Cl)c1 (some centres undefined)	-2%
CCCOC(=O)c1ccc(NC(=O)C2C3C=CC(O3)C2C(=O)O)cc1 (centres undefined)	-4%
CCOC(=O)C1=C(C)Nc2nc(SC)nn2C1c1ccc(C(=O)OC)cc1 (centres undefined)	5%
Cc1ccc(NC(=O)Cn2nc(C)cc2C)cc1	-8%
Cn1c(-c2ccco2)nc2cc3ccccc3cc21	36%
CC(C)(C)c1cc(C(=O)N2CCN(c3ncccn3)CC2)ccn1	15%
Cc1ccc2ccccc2c1	-5%
O=C(c1ccc(CS(=O)(=O)c2ccc(Br)cc2)o1)N1CCCC1	4µM*[single pt active]
COC(=O)c1cc(-c2ccc(Br)cc2)n[nH]1	3%
Cc1ccc2c(c1)C(O)(CC(=O)c1ccc3c(c1)OCO3)C(=O)N2 (centres undefined)	0%
COc1ccc(-c2ccc(-c3noc(-c4ccccc4F)n3)c(OC)n2)cc1	-14%
COC(=O)[C@@]1(Cc2ccc(OC)cc2)[C@H]2c3cc(C(=O)N4CCCC4)n(CCc4ccc(O)c(O)c4)c3C[C@H]2CN1C(=O)c1ccccc1	145%
O=C(CCNS(=O)(=O)c1cccc2nsnc12)NC1CCCc2ccccc21 (centres undefined)	-1%
COc1ccc(N2C(=O)CSC2c2ccc3c(c2)OCO3)cc1 (centres undefined)	9%
O=C(O)c1cccc(C(=O)O)n1	-3%
CCn1c(SCC(=O)N2CCN(c3ccccc3F)CC2)nnc1-c1ccoc1C	44%
CN1CCN(CCC(=O)Nc2cccc(F)c2)CC1	-4%
CCCS(=O)(=O)N1CCC(C(=O)NC2CCCCC2C)CC1 (centres undefined)	-3%
COc1cccc(-n2cnc3scc(-c4cccs4)c3c2=O)c1	7%
O=C(CSc1nnc(-c2ccco2)n1Cc1ccco1)N1CCOCC1	4%
O=C(c1ccco1)N1CCC[C@@]2(CCN(C(c3ccccc3)c3ccccc3)C2)C1	100%
CCc1nnc(NC(=O)CSc2nnc(-c3ccco3)n2CC)s1	14%
Cc1ccc(S(=O)(=O)Cn2nnnc2C(c2ccccc2)N2CCN(c3ncccn3)CC2)cc1 (centres undefined)	77%
CC1=C(C(=O)OC(C)C)C(c2ccccn2)n2ncnc2N1 (centres undefined)	4µM*[single pt active]
CS(=O)(=O)N1CCN(C(=O)C2c3ccccc3Oc3ccccc32)CC1	48%
COc1ccc(S(=O)(=O)N(C)CC(=O)N2CCC(C(N)=O)CC2)cc1Cl	-16%
Cc1sc2nc3n(c(=O)c2c1C)CCCS3	-13%
O=C1c2cccnc2C(=O)N1C1CCCCC1	-7%
CN1[C@H](CC(=O)c2ccccc2)CCC[C@H]1C[C@H](O)c1ccccc1	21%
Cc1ccc(-c2nc3ncccn3c2Nc2ccc3c(c2)OCCO3)o1	21%
CC1CN(Cc2nc3c(c(=O)n(C)c(=O)n3C)n2CCN2CCOCC2)CC(C)O1 (centres undefined)	2%
CC(=O)Nc1nonc1C(=O)N1CCC(C)CC1	10%
COc1cc2[nH]c(=O)n(CCC(=O)N3CCN(c4cc(Cl)ccc4C)CC3)c(=O)c2cc1OC	124%
C[C@H](N)C(=O)OC(C)(C)Cc1ccc(Cl)cc1	5%
CCOC(=O)Cc1csc(NC(=O)CSc2nnc(C(C)C)n2CC)n1	8%
New compounds follow
SMILES	AmpC nodet inh
C=CCNc1oc(-c2ccc(OC)cc2)nc1C#N	2%
Cc1cc(C)nc(NC(=O)Cc2cccs2)n1	-9%
COc1ccc(Cn2c(-c3ccco3)nc3oc4cc(OC)ccc4c(=O)c3c2=O)cc1	66%
CCOC(=O)N1CCN(Cc2c(F)cccc2Cl)CC1	30%
CC1=CS/C(=C(/C#N)C(=O)N2CCOCC2)N1c1ccccc1	-11%
CCOC(=O)Nc1ccc(C)cc1Br	-4%
O=C(CN1C(=O)COc2ccccc21)NCCCN1CCc2ccccc2C1	-2%
Cc1ccccc1-c1cc(N(C)Cc2ccco2)ncn1	11%
Cn1c(=O)c2c(ncn2Cc2cc(-c3ccccc3)no2)n(C)c1=O	45%
O=C(NCCN1C(=O)C2C3C=CC(C3)C2C1=O)NCc1ccccc1 (centres undefined)	4µM*[single pt active]
Cc1ccc2[nH]c(=O)c(-c3nc4c(C)cccn4c3NCc3ccco3)cc2c1	0%
O=C(NCCN1CCN(c2ccccc2)CC1)c1ccc(NC(=O)C2CCCO2)cc1 (centres undefined)	19%
Cc1ccc(-c2nn3c(C)nnc3s2)cc1NC(=O)C(C)C	22%
COc1ccc(N(CC(=O)Nc2cc(C(=O)O)ccc2C)S(=O)(=O)c2c(C)noc2C)cc1	5%
CC(C)N(Cc1cc2ccccc2[nH]c1=O)C(=O)c1cccnc1	-4%
COc1cccc(CNC(=O)Cn2cccc2)c1	-2%
Cc1cc(C)nc(N2CCC(C(=O)O)CC2)n1	-4%
CCC/C(=C1/C(=O)CC(C)(C)C(C(=O)OC)C1=O)N1CCCC1 (centres undefined)	4%
O=C(Nc1c(C(=O)NCc2ccco2)cnn1-c1ccccc1)c1ccc(F)cc1	16%
O=C(CCSc1nccn1Cc1ccccc1)N1CCOCC1	10%
CCOC(=O)N1CCN(C(=O)c2ccc3c(=O)n(Cc4ccc(OC)cc4)c(=S)[nH]c3c2)CC1	131%
Cc1noc(C)c1S(=O)(=O)N(CC(=O)Nc1ccc2c(c1)OCCO2)c1ccc(C(C)C)cc1	-4%
CC1CCc2c(sc3nc(SCc4nc(-c5ccccc5)no4)n(C)c(=O)c23)C1 (centres undefined)	8%
Cc1cc(C)n(C(=O)c2ccc(C)c(S(=O)(=O)N3CCOCC3)c2)n1	5%
Cc1nc(C)c(C(=O)Nc2ccccc2)s1	-2%
CN1C(=O)c2cccc(NCCCN3C(=O)c4ccccc4C3=O)c2C1=O	11%
Cc1ccc2cc3cc(C(=O)N4CCCCC4C)oc3nc2c1 (centres undefined)	36%
COC(=O)c1ccc(-n2nnnc2SCc2ccccc2OC)cc1	20%
COC(=O)c1cc2c(s1)CS(=O)C2 (centres undefined)	4%
COc1ccc(CCNC(=O)C2CCCN(C(=O)N(C)C)C2)c(OC)c1 (centres undefined)	0%
CCN(CC)C(=O)CSc1nnc(-n2nc(C)cc2C)c2ccccc12	40%
Cc1ccc(CN2CC(C(=O)Nc3ccc4c(C)cc(=O)oc4c3)CC2=O)cc1 (centres undefined)	52%
CN1C(=O)c2c(sc3c2CC(C)(C)SC3)N2CCN=C12	58%
N#Cc1c2n(c3c(=O)n(CC(=O)c4ccc(Br)cc4)cnc13)CCCC2	19%
CCn1c(SCc2cccnc2)nc2c1c(=O)n(C)c(=O)n2C	5%
Cc1cnc(CNc2nc(-c3c(C)noc3C)nc3ccccc23)cn1	33%
O=C(CSc1nnc(-c2ccccc2)n1Cc1ccccc1)NC1CC1	11%
CCN1CCN(C(c2cccs2)C(C)NC(=O)c2c(F)cccc2F)CC1 (centres undefined)	-5%
CN(C)CCCN1C(=O)C(=O)/C(=C(/O)c2ccc3c(c2)OCO3)C1c1ccco1 (centres undefined)	-10%
Cn1c(=O)c2cc(S(=O)(=O)NCCC(=O)NCC3CCCO3)ccc2n(C)c1=O (centres undefined)	-14%
Cc1ccc(-c2noc(CCC(=O)NCCN3CCc4ccccc4C3)n2)cc1	94%
COC(=O)c1ccc(CSc2ccc3nnc(-c4cccnc4)n3n2)o1	16%
COc1ccc(C2C3C(=O)N(Cc4ccccc4)C(=O)C3ON2c2ccccc2)c(OC)c1OC (centres undefined)	43%
O=C(C1CCCN1S(=O)(=O)c1ccc(Cl)c(Cl)c1)N1CCOCC1 (centres undefined)	9%
NS(=O)(=O)c1ccc(NC(=O)COC(=O)CSc2n[nH]c(-c3ccccc3)n2)cc1	-24%
O=C1c2oc3ccc(Cl)cc3c(=O)c2C(c2cccc(Br)c2)N1CCO (centres undefined)	-21%
CCCCCCCC[N+](CCCCCCCC)(CCCCCCCC)CCCCCCCC	-20%
CCN(CC)C(=S)SSC(=S)N(CC)CC	6%[12.8 µM]
CC1(C)NC(=O)N(CC(O)CN2C(=O)NC(C)(C)C2=O)C1=O	-10%
Cc1cc(C)n2nc3nc(N4CCCCC4)nc(-c4ccco4)c3c2n1	?
Cc1ccc(S(=O)(=O)O[C@@H]2[C@H]([C@@H]3COC(C)(C)O3)O[C@H]3OC(C)(C)O[C@@H]32)cc1	-11%[5.75 µM]
Cc1occc1-c1nnc(SCC(=O)Nc2ccccc2-c2ccccc2)n1C	28%
COc1ccc(-c2csc3c2[N+]2=CCC=C2C3=O)cc1	-4%[5.75 µM]
O=S(=O)(c1ccc(Br)s1)n1cccn1	-4%
Cc1ccc(-c2nn[nH]n2)cc1	1%
N#Cc1cccc(NC(=O)N2CC3(CCN(C(=O)c4cnccn4)CC3)C2)c1	7%
COc1ccc(-c2oc3ncnc(NCCN4CCOCC4)c3c2-c2ccc(OC)cc2)cc1	101%
Cc1ccc(S(=O)(=O)CC2CSc3nc(N)cc(=O)n32)cc1 (centres undefined)	-7%
CN1CCN(c2ccc(Cl)cc2NC(=O)C2COc3ccccc3O2)CC1 (centres undefined)	49%
FC(F)(F)c1ccccc1-c1nc(NC2CC2)c2ccccc2n1	7%
Additional structures follow.
SMILES	AmpC nodet inh
COc1cccc(OC)c1NC(=O)C1CCCN1C(=O)NCc1ccccc1 (centres undefined)	2%
Cc1cc(N2CCOCC2)n2nc(C)c(-c3ccccc3)c2n1	69%
Cc1ccc(NC(=O)C2CCN(S(=O)(=O)c3c(C)n[nH]c3C)CC2)nc1	-2%
CCOc1ccc(NC(=O)c2ccccc2OC)cc1	-3%
CCOC(=O)C1C(=O)NC(N2CCCCC2)=NC1c1ccccc1 (centres undefined)	1%
O=c1[nH]c2cc3c(cc2cc1CN(CC1CCCO1)S(=O)(=O)c1ccccc1)OCCO3 (centres undefined)	20%
Cc1ccc(NCc2nnc(SCC(=O)N3CCCc4ccccc43)o2)c(C)c1	47%
COC(=O)c1ccc(NC(=O)CN2CCOCC2)cc1	0%

Quoted at random: 2 entries already listed, in no set order.
SMILES	AmpC nodet inh
CC1=C(C(=O)OC(C)C)C(c2ccccn2)n2ncnc2N1 (centres undefined)	4µM*[single pt active]
CCCCCCCC[N+](CCCCCCCC)(CCCCCCCC)CCCCCCCC	-20%

Structural class, those above containing two or more sulfur atoms
SMILES	AmpC nodet inh
Cc1cccc(OC(C)C(=O)N(Cc2cccs2)C2CCS(=O)(=O)C2)c1C (centres undefined)	83%
O=C(CCC(=O)N1CCN(S(=O)(=O)c2ccccc2)CC1)c1cccs1	12%
CC1Cc2nc(SCC(=O)Nc3ccc4c(c3)OCCO4)n(C)c(=O)c2S1 (centres undefined)	6%
O=C(CCNS(=O)(=O)c1cccc2nsnc12)NC1CCCc2ccccc21 (centres undefined)	-1%
COc1cccc(-n2cnc3scc(-c4cccs4)c3c2=O)c1	7%
CCc1nnc(NC(=O)CSc2nnc(-c3ccco3)n2CC)s1	14%
Cc1sc2nc3n(c(=O)c2c1C)CCCS3	-13%
CCOC(=O)Cc1csc(NC(=O)CSc2nnc(C(C)C)n2CC)n1	8%
CC1CCc2c(sc3nc(SCc4nc(-c5ccccc5)no4)n(C)c(=O)c23)C1 (centres undefined)	8%
COC(=O)c1cc2c(s1)CS(=O)C2 (centres undefined)	4%
CN1C(=O)c2c(sc3c2CC(C)(C)SC3)N2CCN=C12	58%
NS(=O)(=O)c1ccc(NC(=O)COC(=O)CSc2n[nH]c(-c3ccccc3)n2)cc1	-24%
CCN(CC)C(=S)SSC(=S)N(CC)CC	6%[12.8 µM]
O=S(=O)(c1ccc(Br)s1)n1cccn1	-4%
Cc1ccc(S(=O)(=O)CC2CSc3nc(N)cc(=O)n32)cc1 (centres undefined)	-7%

These rows are one share of the data. The share of hits here may be higher or lower than overall.
